TsaE inh: inhibitors of E. coli YjeE (TsaE); AID 605; purified YjeE, fluorescence polarisation of a bound ADP probe; P0AF67; 71,000 tested, 0.05% active; Potency, µM; active = well fitted falling curve; inconclusive = weaker or top-dose-only fall, or a rising curve; inactive = flat or poorly fitted curve;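 note: top concentration of the series not given in the record; excess ADP was the control for the full effect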
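Fluorescence polarization of a BODIPY Texas Red–ADP probe (2 uM) bound to purified YjeE (10 uM) was read after 15 min room-temperature incubation with compounds. Loss of polarization marks inhibitors; ADP serves as titrated control.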
Bst PK mod: alters activity of Bacillus stearothermophilus pyruvate kinase; partly purified Bacillus stearothermophilus pyruvate kinase, luminescence ATP production; ribose 5-phosphate activator present at AC10; Potency, µM; 51,000 tested, 1.2% active; AID 361; in the data active means potency below about 11 µM; inconclusive means mostly about 12 µM to 25 µM; inactive means weaker than that;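 the screen sought inhibitors and activators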;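 note: potency is the fitted concentration of half-maximal effect; scaled between full activation by ribose 5 phosphate and full inhibition by luteolin; about four in five hits inhibit and the cells do not say which; series up to 57 µM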
An asterisk follows results filed as active; i = inactive; · = no result given.

Preview (three entries):
SMILES	TsaE inh	Bst PK mod
CC(=O)OCCNC(=O)Cn1cnc2c1c(=O)n(C)c(=O)n2C	i	>57
CC(C)(C)C1CCc2c(sc(N)c2C(N)=O)C1 (centres undefined)	i	·
Cc1ccc2oc(-c3ccccc3C(=O)O)cc(=O)c2c1	i	>57

All compounds of this part (from the top)
SMILES	TsaE inh	Bst PK mod
CC(=O)OCCNC(=O)Cn1cnc2c1c(=O)n(C)c(=O)n2C	i	>57
CC(C)(C)C1CCc2c(sc(N)c2C(N)=O)C1 (centres undefined)	i	·
Cc1ccc2oc(-c3ccccc3C(=O)O)cc(=O)c2c1	i	>57
Cn1cc(-c2nc3cnc(N4CCNCC4)nc3n(-c3ccccc3)c2=O)c2ccccc21	i	·
O=C(Nc1nnc(C2CCCC2)s1)C1CCN(S(=O)(=O)c2ccc(Cl)cc2)CC1	i	>57
CC(C)NC(=O)CSc1nnc2sc3ccccc3n12	i	>57
CC12CCCCC1(O)[N+](=O)C1=C(CCCC1)N2[O-] (centres undefined)	i	>57
CCOc1ccccc1C(=O)NCC(=O)OCC(=O)N1C(C)CCCC1C (centres undefined)	i	>57
COC(=O)[C@@]1(Cc2ccc(F)cc2)[C@H]2c3cc(C(=O)N(C)C)n(Cc4cc(F)c(F)c(F)c4)c3C[C@H]2CN1C(=O)c1ccccc1	i	·
O=C(CN1C(=O)C2C3c4ccccc4C(c4ccccc43)C2C1=O)N1CCOCC1 (centres undefined)	i	·
CCOC(=O)N1CCN(C(=O)CCc2nc3sc4c(c3c(=O)[nH]2)CCCC4)CC1	i	>57
Nc1nc(Cc2ccccc2)nc(Cc2ccccc2)c1-c1ccccc1	i	·
Cc1nc2nc(C)c(CCC(=O)NCCC3=CCCCC3)c(C)n2n1	i	>57
Cc1cc(=O)n(-c2ccc(O)cc2)[nH]1	i	>57
COc1ccc(Cl)cc1-c1nc(-c2ccncc2)no1	i	>57
O=C(c1cccc(F)c1)N1CCN(S(=O)(=O)c2ccc(C(F)(F)F)cc2)CC1	i	>57
Cc1cc(NC(=O)c2noc3c2CCCCC3)no1	i	·
CCOC(=O)C(NS(=O)(=O)c1ccc(Br)cc1)C(C)C (centres undefined)	i	>57
CS(=O)(=O)Nc1ccc(Nc2c3ccccc3nc3ccccc23)cc1	i	·
CCc1nnc(NC(=O)CCC(=O)N2CCN(Cc3ccc(Cl)cc3)CC2)s1	i	>57
CC1CCCC(NC(=O)COC(=O)Cc2cn3ccsc3n2)C1C (centres undefined)	i	>57
O=C(c1nn(Cc2ccccc2)c(=O)c2ccccc12)N1CCN(c2ccccn2)CC1	i	>57
CCOC(=O)COc1ccc2c3c(c(=O)oc2c1C)CCC3	i	i
COc1ccc(-c2nc(NC(=O)C3CCN(c4nc5ccccc5o4)CC3)sc2C)cc1	i	>57
O=C(Nc1nccs1)c1ccc(Cl)c(S(=O)(=O)N2CCOCC2)c1	i	>57
CC1(C)Cc2c(sc3nc(-c4cc5ccccc5o4)n(N)c(=O)c23)CO1	i	>57
CN(C)c1ccc(NC(=O)Cn2c(=O)n(Cc3ccccc3)c(=O)c3ccccc32)cc1	i	>57
Cn1c(COc2ccccc2)nnc1SCCSc1nnc(COc2ccccc2)n1C	i	>57
O=C1CN(C(=O)c2ccco2)C(c2ccccc2)c2cc(Cl)ccc2N1 (centres undefined)	i	>57
CCOC(=O)N1CCC(N2Cc3cccc(C(=O)NCc4ccccc4OC)c3C2=O)CC1	i	>57
Cc1[nH]n2c(=O)cc(Cc3ccccc3)nc2c1C#N	i	>57
COc1cccc(CN=CC2=C(O)CC(C)(C)CC2=O)c1OC	i	·
CC(C)OC(=O)CSc1nnc2n1C(C)(C)Cc1ccccc1-2	i	>57
COCCn1c(-c2cc(OC)c(OC)c(OC)c2)nc2nc3ccccc3nc21	i	>57
CCn1c(Cc2ccccc2)nnc1SCC(=O)Nc1ccc(N2CCOCC2)c(Cl)c1	i	·
CCOC(=O)c1c(O)c2c(n(Cc3ccco3)c1=O)CCCC2	i	>57
COC(=O)c1cnn2c(C(F)(F)F)cc(-c3ccc(F)cc3)nc12	i	>57
Cn1c(=O)[nH]c(=O)c2c1nc1n2CCCN1CCc1ccccc1	i	>57
O=C(CSc1nnc(SCC(=O)c2ccco2)s1)c1ccco1	i	>57
O=C(c1cccc2ccccc12)N1CCN(c2ccccc2F)CC1	i	i
COc1ccc(-n2nnc3c(=O)n(CC(=O)N4CCCC4)cnc32)cc1	i	>57
C/C=C/COC(=O)c1[nH]c2c(c1C)C(=O)CC(c1ccco1)C2 (centres undefined)	i	·
CCc1ccc(C(=O)COC(=O)CNC(=O)c2ccco2)cc1	i	·
O=C(O)c1cc(NCc2ccccc2C(F)(F)F)ccc1N1CCOCC1	i	>57
N#CCSc1nc2ccc(N3CCCCC3)cc2c(=O)n1Cc1ccccc1	i	>57
CNc1cc(-c2ccccc2CN(C)C)ncn1	i	·
Cc1ccc(S(=O)(=O)N2CCCC2C(=O)NCCc2nc3ccccc3[nH]2)cc1 (centres undefined)	i	·
O=C(Nc1cccc(C(F)(F)F)c1)c1cccnc1N1CCN(CCO)CC1	i	>57
CCOC(=O)CSc1nc2cccnc2n1-c1ccc(F)cc1	i	>57
C=CCOc1cccc(C2C(C(=O)c3ccc(C)o3)=C(O)C(=O)N2c2nccs2)c1 (centres undefined)	i	>57
COCCNC(=O)c1ccc(CS(=O)(=O)c2c(Cl)cccc2Cl)o1	i	·
C=CCn1c(SCCCc2ccccc2)nc2c1c(=O)[nH]c(=O)n2C	i	·
CCn1c(C)cc(=S)c2ccccc21	i	>57
O=C1OC2(CCCCC2)OC(=O)C1=CNc1ccc2c(c1)OCO2	i	>57
CN(C)C(=O)c1ccc(NC(=O)c2cncc(Br)c2)cc1	i	>57
Cc1ccc(SCc2[nH]nc3c2C2(C(=O)N(C)c4ccccc42)C(C#N)=C(N)O3)cc1 (centres undefined)	i	>57
O=C(Cc1c(O)c2ccccc2[nH]c1=O)NCc1cccc(F)c1	i	>57
O=S1(=O)N[C@H]2CC[C@@H]3NS(=O)(=O)N[C@H]4CC[C@H](N1)N4S(=O)(=O)N23	i	·
Cn1c(C(=O)NCCCN2CCCC2=O)cc2c(=O)n3ccccc3nc21	i	>57
CCOc1ccccc1OCC(=O)OCC(=O)Nc1ncc(Cl)cc1Cl	i	·
Additional structures:
SMILES	TsaE inh	Bst PK mod
CN1C[N+]([O-])=C(c2ccccc2)C1(C)C	i	·
O=C(Cc1c(F)cccc1Cl)N1CCCC1	i	>57
CC1CCCCN1C(=O)C12CCC(C)(/C(=N/O)C1)C2(C)C (centres undefined)	·	>26
COCC(=O)NCc1nc2ccccc2[nH]1	i	>57
CC=C(Cl)Cl	i	·
c1ccc2c(c1)C(=Nc1ccc(N=C3c4ccccc4-c4ccccc43)cc1)c1ccccc1-2	i	·
CCOC(=O)N1CCC(NC(=O)c2cc(C(=O)Nc3ccc(OCC)cc3)ccc2CO)CC1	i	>57
CC(=O)OCCN(CCOC(C)=O)c1c(C)[nH]c(=O)[nH]c1=O	i	·
CCN(CC)CCN1C(=O)C(=O)/C(=C(/O)c2ccc(F)cc2)C1c1cccnc1 (centres undefined)	·	>26
CCOC(=O)COc1ccc(CCNC(C)=O)cc1	i	>57
CC(NC(=O)c1cccnc1)C(=O)N1CCCCC1 (centres undefined)	i	>57
Fc1ccc(-n2cnnn2)c(F)c1	i	>57
CS(=O)(=O)N(Cc1ccc(C(=O)NC2CCCCC2O)cc1)c1ccccc1 (centres undefined)	i	·
CCCCn1c(NC(=O)c2ccc(F)cc2)c(C#N)c2nc3ccccc3nc21	i	>57
Cc1ccc(CCNC(=O)CCNS(=O)(=O)c2ccc3c(c2)oc(=O)n3C)cc1	i	>57
CCN(CC)C(=O)N1CCC(NC(=O)Cc2ccccc2)CC1	i	>57
O=C(CN1CCC(C(=O)c2ccc3c(c2)OCCO3)CC1)NC1CCCC1	i	>57
COc1ccc(-c2nnc(SCCC(=O)O)n2C)cc1OC	i	>57
CNC(=O)OC(C)CNS(=O)(=O)c1ccc(C)cc1 (centres undefined)	i	>57
CC1CCN(CCNC(=O)c2ccc(NC(=O)C3CCCO3)cc2)CC1 (centres undefined)	i	>57
O=C(CSc1nc2ccccc2o1)NC(=O)NCc1ccco1	i	>57
COc1ccc(OC)c(C(=O)COC(=O)c2ccccc2O)c1	i	>57
C=CCN(CC=C)C(=O)CN1C(=O)c2ccccc2C1=O	i	>57
O=C(O)CCc1ccc(-c2cccs2)o1	i	·
c1ccc(CSc2nnnn2-c2cccc3ccccc23)nc1	i	7.4*
CCCOc1ccc2c(C)c(CC(=O)OC)c(=O)oc2c1	i	·
O=C(CCCc1nc(-c2ccccc2)no1)N1CCOCC1	i	>57
CN1c2ccccc2C(C)(C)C12CCCC(=O)N2 (centres undefined)	i	>57
O=C(CSc1nc(-c2ccc(F)cc2)cc(C(F)(F)F)n1)NCCN1CCOCC1	i	>57
O=C(Nc1ccc(Cl)cn1)Nc1cccs1	i	·
CCNc1ncc2nc(-c3cn(C)c4ccccc34)c(=O)n(Cc3cccs3)c2n1	i	·
CC[C@@H]1CC(=O)N(SC[C@H](N)C(=O)O)C1=O	i	·
O=C(NC1CCCCC1)C1CCN(C(=O)NCc2ccccc2)CC1	i	>57
CC(C)(C)C(=O)COC(=O)c1ccc(O)cc1	i	>57
c1ccc(Cn2nnc3c(N4CCC5(CC4)OCCO5)ncnc32)cc1	i	>57
Cc1nn(CC(=O)Nc2cccnc2N2CCOCC2)c(=O)c2ccccc12	i	>57
C=CC(=O)NC(C)C	i	·
Nc1nc(SCC(=O)N2CCCc3ccccc32)[nH]c(=O)c1-c1ccccc1	i	>57
CCn1ncc(Br)c1C(=O)Nc1sc2c(c1C(=O)OC)CCC2	i	>57
COc1cccc(-c2cncnc2N(C)Cc2ccco2)c1	i	·
FC(F)(F)c1ccccc1-c1nc(NCc2cccnc2)c2ccccc2n1	i	·
CCOc1ccccc1Nc1nc2ccccc2[nH]1	i	·
COCCSc1ccccc1C(=O)Nc1nnc(C)s1	i	>57
Cc1cc(C)nc(N2CCN(c3nnnn3-c3ccccc3)CC2)n1	i	>57
Cn1nc(C(=O)Nc2sccc2C(N)=O)ccc1=O	i	·
Cc1oc(-c2ccc(Cl)cc2)nc1CN1CCCC(C(=O)N2CCN(C(=O)c3ccco3)CC2)C1 (centres undefined)	i	·
O=[N+]([O-])c1cccc(/C=N\Nc2ccc3ccccc3n2)c1O	i	·
CCCc1cc(=O)n2[nH]c(NCc3cccs3)nc2n1	i	>57
C=C(CC1([C@@H](NP(=O)(c2ccccc2)c2ccccc2)[C@H]2C[C@@H]2CCCC)CC1)c1cccc(OC)c1	i	·
O=[N+]([O-])c1ccc2cn[nH]c2c1	i	·
Cc1c(NC(=O)CN2c3cccc4cccc(c34)S2(=O)=O)c(=O)n(-c2ccccc2)n1C	i	11*
CCC(CC)n1[nH]c(=O)cc1N	·	>26
O=C(c1cccc(F)c1)N1CCC2(CC1)CN(C(c1ccccc1)c1ccccc1)C2	i	·
COc1ccc(C)cc1Cn1c(S(C)(=O)=O)nc2ccccc21	i	>57
CC1CCN(C(=O)COc2ccccc2F)CC1	i	·
COc1ccc(C2C3=C(CCCC3=O)Nc3nc4ccccc4n32)c(OC)c1OC (centres undefined)	i	>57
c1cn2cc(-c3ccc4c(c3)OCO4)nc2s1	i	8.9*
CC1CN(C(=O)c2ccncc2)CC(C)O1 (centres undefined)	i	>57
COc1ccc(CN2CCCC2C(=O)Nc2ccc(OC)c(OC)c2)cc1OC (centres undefined)	i	·
NC(=O)C1CCN(C(=O)CCCCCn2c(=O)[nH]c3ccsc3c2=O)CC1	i	>57

4 records picked at random from the list so far:
SMILES	TsaE inh	Bst PK mod
COc1ccc(C2C3=C(CCCC3=O)Nc3nc4ccccc4n32)c(OC)c1OC (centres undefined)	i	>57
FC(F)(F)c1ccccc1-c1nc(NCc2cccnc2)c2ccccc2n1	i	·
Cn1nc(C(=O)Nc2sccc2C(N)=O)ccc1=O	i	·
CCOc1ccccc1Nc1nc2ccccc2[nH]1	i	·

Back to the main list with the six entries that preceded the break.
SMILES	TsaE inh	Bst PK mod
CC1CCN(C(=O)COc2ccccc2F)CC1	i	·
COc1ccc(C2C3=C(CCCC3=O)Nc3nc4ccccc4n32)c(OC)c1OC (centres undefined)	i	>57
c1cn2cc(-c3ccc4c(c3)OCO4)nc2s1	i	8.9*
CC1CN(C(=O)c2ccncc2)CC(C)O1 (centres undefined)	i	>57
COc1ccc(CN2CCCC2C(=O)Nc2ccc(OC)c(OC)c2)cc1OC (centres undefined)	i	·
NC(=O)C1CCN(C(=O)CCCCCn2c(=O)[nH]c3ccsc3c2=O)CC1	i	>57
CCOC(=O)CCc1c(C)n(CC)c2cc(-c3ccccc3OC)nn2c1=O	i	>57
CS(=O)(=O)N(CC(=O)NCCSCc1c(F)cccc1Cl)c1ccc2c(c1)OCO2	i	·
CN1CCN(CC(O)COc2ccc(OCC(O)CN3CCN(C)CC3)cc2)CC1 (centres undefined)	i	>57
COc1ccc(-c2cc(C(F)(F)F)nc(S(=O)(=O)CCC(=O)N3CCOCC3)n2)cc1	i	i
Cc1c(-c2cccs2)[n+](=O)c2c(n1[O-])CCCCC2	i	·
CCOc1ccccc1NC(=O)N1CCC(n2nnc3cc(C)ccc32)CC1	i	>57
Cn1c(=O)cc(OCCCC(=O)NCCCN2CCN(Cc3ccccc3)CC2)c2ccccc21	i	>57

Screening results as filed in PubChem BioAssay.

The list is partial, so the mix of outcomes need not match the whole.
